# From PubChem
# Beta2AR agonist: beta2AR agonists driving receptor internalization, primary screen, cell-based, FAP fluorogen, flow cytometry; AID 504454, 2011; 0.43% of 340,000 active; Am2.2-beta2AR cells; reference of the scale not given here; response, % (no concentration beside the values); Beta-2 adrenergic receptor (Homo sapiens), P07550;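 active = response above a set limit, near 3 SD of response in nonfluorescent compounds, cut at about 42% in these data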;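 note: stock transfer was 100 nL into about 11 µL; a reference agonist was the positive control; negative values mostly stem from fluorescent compounds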
# Target sequence (P07550 whole entry, looked up): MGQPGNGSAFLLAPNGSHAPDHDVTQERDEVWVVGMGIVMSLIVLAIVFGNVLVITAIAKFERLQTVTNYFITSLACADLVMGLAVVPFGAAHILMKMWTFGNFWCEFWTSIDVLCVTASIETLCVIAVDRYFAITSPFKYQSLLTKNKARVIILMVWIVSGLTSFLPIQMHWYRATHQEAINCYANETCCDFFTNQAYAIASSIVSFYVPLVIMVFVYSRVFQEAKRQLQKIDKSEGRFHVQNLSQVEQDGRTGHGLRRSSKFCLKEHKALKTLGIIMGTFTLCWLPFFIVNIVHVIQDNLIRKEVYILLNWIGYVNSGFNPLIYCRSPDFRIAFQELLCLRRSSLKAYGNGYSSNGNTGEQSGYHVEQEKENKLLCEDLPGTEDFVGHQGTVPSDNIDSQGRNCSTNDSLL
# HNF4A DNA FP: change in binding of human HNF4A to DNA, primary screen, biochemical, fluorescence polarization, FITC-DNA; 0.3% of 360,000 active; 1 h; AID 1224865, 2016; Hepatocyte nuclear factor 4-alpha (Homo sapiens), P41235; activity change, % at 10 µM; in the data active = activity change above about 30%, passing the limit was not always enough;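 note: controls were the assay level and a saturating level of protein; the project sought stronger binding though the title names inhibitors; some compounds called inactive have numbers as strong as hits; positive values seem to mean higher polarization but the record does not say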
# E coli growth: E. coli growth inhibition, primary screen, OD600; Escherichia coli growth, 23 h; hits give low values; OD600 absorbance (concentration not given with the values); 0.21% of 330,000 active; AID 1053175, 2014;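 active = OD600 absorbance below the run mean of sample wells minus 3.6 SD, in any replicate, cut at about 0.56 in these data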;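 note: stock transfer was 300 nL into about 60 µL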
# LANA-H2A inh: blockers of LANA interaction with H2A/H2B – biochemical, FP readout, HTS, primary screen | Protein LANA1 (Human herpesvirus 8 type P (isolate GK18)), Q9QR71 | cell-free LANA-H2A/H2B peptide, fluorescence polarization | inhibition, % (concentration not given with the values) | 0.6% of 320,000 active | AID 2629, 2010; in the data active = inhibition mostly above about 10%, no sharp cut-off; inactive = mostly below about 6.7%;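 note: stock transfer was 7.5 nL into about 10 µL; 0% = median of vehicle wells and 100% = median of positive control wells; one replicate is shown; the record names a cut of 25% in any replicate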
# A1 inh: caspase 3/7 activation in MEF A1-2A-BIM cells, primary screen, A1 inhibitor project, cell-based, luminescence, HTS | Caspase-Glo 3/7 luminescence, 3 h; percent of clofoctol response, vehicle zero | caspase activation, % (test concentration not listed) | 0.066% of 330,000 active | AID 2462, 2010;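 active = over half of replicate activation scores above 10%, or exactly half above 10 with the replicate mean above 10; inconclusive = replicate mean below 10 yet half the replicates above 10; inactive = over half of replicates below 10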;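 note: wells of about 30 µL received 50 nL stock; many hits fall short of the cut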
# UCH37 inh: inhibitors of human UCH37 deubiquitinase, primary screen, biochemical, Ub-AMC cleavage, fluorescence. purified proteasome/UCH37. 0.33% of 330,000 active. inhibition, % (no concentration beside the values);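 active = mean of two replicates above 20%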;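 note: 0% = compound-free wells with enzyme and 100% = wells lacking proteasome; stock transfer was 100 nL into about 20 µL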
# Target sequence (Q9Y5K5 whole entry, looked up): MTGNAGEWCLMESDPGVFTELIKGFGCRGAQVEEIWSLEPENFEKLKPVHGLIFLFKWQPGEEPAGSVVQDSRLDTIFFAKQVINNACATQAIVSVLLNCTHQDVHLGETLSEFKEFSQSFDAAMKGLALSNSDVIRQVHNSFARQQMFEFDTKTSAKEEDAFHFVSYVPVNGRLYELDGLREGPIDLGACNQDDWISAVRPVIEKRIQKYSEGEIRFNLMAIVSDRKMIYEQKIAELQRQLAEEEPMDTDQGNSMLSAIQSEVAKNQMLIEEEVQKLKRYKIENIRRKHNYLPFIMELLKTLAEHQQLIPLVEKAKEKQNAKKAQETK
#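 System: Proteasome-associated human UCH37 deubiquitinase; Input: 0.15 nM proteasome in added enzyme buffer; Also added: Ub-AMC substrate from 1 µM stock; Incubation: 30 min compound-proteasome preincubation then 25 min substrate reaction, room temperature; Detection: fluorescence, ex 355 nm, em 460 nm; Read-out: % inhibition of Ub-AMC cleavage fluorescence; Benchmarks: no-proteasome and no-compound wells.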
# Vif TR-FRET: inhibitors of Vif binding to APOBEC3G peptide, primary screen, biochemical, TR-FRET, GST-Vif 1-94, biotin-A3G peptide, dose response retest (AID 1117319) | TR-FRET GST-Vif / biotin-A3G peptide binding; higher % means a stronger effect; test concentration not given here; strong numbers were not always called active | one-dose inhibition, %; IC50 in µM for titrated hits | 0.57% of 260,000 active;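 active = above the screen mean plus three standard deviations and confirmed in dose response; inconclusive = results disagree or hit not tested in dose response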;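 note: Vif residues 1-94 fused to GST binding biotinylated APOBEC3G peptide 110-148; 0% = full assay without inhibitor and 100% = GST in place of GST-Vif; retest series ran down from 100 µM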
# * hit, by the source's call; u = inconclusive; x = no result given; & = joins results of further samples.
SMILES,Beta2AR agonist,HNF4A DNA FP,E coli growth,LANA-H2A inh,A1 inh,UCH37 inh,Vif TR-FRET
O=C(COc1ccc(-n2cnnn2)cc1)NC1CCCCC1,2,5.5,0.67,-6.2,u,4.9,4%
Cc1c(Cl)cccc1NC(=O)Cn1cnc(S(=O)(=O)N2CCCC2)c1,-2,-1.2,0.65,-10,1.7,-1.8,u
CC(Sc1nnc(NC2CCCCC2)s1)C(=O)Nc1ccc2c(c1)C(=O)c1ccccc1C2=O (stereo unspecified),2,0.7,0.68,2.5,-1.2,6.1,x
COc1ccccc1CN1CCN(Cc2ccco2)CC1,13,-0.4,0.7,2.1,1.3,3.5,-2%
CCC12CN3CC(CC)(CN(C1)C3c1ccc(OC(C)C)cc1)C2=O (stereo unspecified),-7,6.5,0.68,-5.0,-0.2,-1.0,1%
COc1ccccc1NS(=O)(=O)c1cccc(NC(=O)c2[nH]c(C)c(C(C)=O)c2C)c1,9,-2.7,0.68,-1.7,-1.2,1.7,x
COc1ccc(C(=O)Nc2ccccc2N2CCOCC2)cc1S(=O)(=O)N1CCCC1,10,1.1,0.7,2.6,0.4,-0.5,x
Cc1noc(NS(=O)(=O)c2ccc(NC(=O)C(C)(C)C)cc2)c1C,4,-0.3,0.68,1.8,0.2,1.0,-1%
O=C(CSc1nc2[nH]ncc2c(=O)n1-c1ccccc1)N1CCCCCC1,x,x,0.66,4.6,1.1,4.1,-1%
CC(=O)c1cccc(NC(=O)c2cc(C)no2)c1,13,17,0.65,-2.1,-0.3,4.2,21%
CCc1nc2ccc(F)cc2c(C(=O)NC2CCCCC2C)c1C (stereo unspecified),-2,7.7,0.74,-2.2,-0.5,1.8,31%
COc1ccc(S(=O)(=O)Nc2cc3c4c(c2)CCN4C(=O)CC3)cc1C,0,-3.6,0.63,-0.2,-0.3,2.1,-2%
COc1ccc(S(=O)(=O)N2CCN(CC(=O)Nc3sccc3C(N)=O)CC2)cc1OC,6,-0.2,0.64,2.4,0.3,2.4,x
CCOC(=O)C1CCN(c2c(NCc3ccc(N(C)C)cc3)c(=O)c2=O)CC1,5,5.7,0.71,1.7,0.1,3.6,-2%
Cc1ccc(CNc2oc(COc3ccccc3Cl)nc2C#N)cc1,6,-3.8,0.74,-1.2,-0.1,3.0,-4%
O=C(COc1ccc(-n2ccnc2)cc1)Nc1cccc(F)c1,-8,2.7,0.64,6.9,-1.0,3.3,0%
Cc1c(NC(=S)N/N=C/c2ccc([N+](=O)[O-])cc2O)c(=O)n(-c2ccccc2)n1C,-7,-6.3,x,-3.0,0.0,x,13%
Cc1ccc(S(=O)(=O)NCC(=O)OCC(=O)N2CCN(C(=O)c3ccco3)CC2)cc1C,1,-5.1,0.7,x,0.3,1.9,x
O=C(NNC(=O)C1COc2ccccc2O1)c1cccc([N+](=O)[O-])c1 (stereo unspecified),-7,1.7,0.67,-3.6,-0.3,-0.2,-1%
CN(C)CCO[C@@H](c1ccc(Cl)cc1)c1ccccn1,x,-5.2,0.67,-1.5,-0.1,3.2,x
COc1ccc(-c2nn(-c3ccccc3)cc2C#N)cc1,1,-2.9,0.76,0.2,-0.5,0.8,-1%
Cc1ccc(C)c(OCCC(=O)Nc2ccc(S(=O)(=O)N3CCCC3)cc2)c1,11,-6.1,0.66,x,x,1.5,-10%
COc1ccccc1N1CCN(C(=O)COc2cccc(C)c2C)CC1,1,-0.5,0.69,x,-0.8,1.3,-6%
O=Cc1ccnc(-c2ccc(OC(=O)c3ccco3)cc2)n1,15,0.3,0.7,0.8,2.6,5.3,3%
Cc1ccc(S(=O)(=O)NCCC(=O)NCc2cccnc2)cc1,3,6.1,0.69,-0.4,-0.6,0.1,-1%

# The list goes on.
SMILES,Beta2AR agonist,HNF4A DNA FP,E coli growth,LANA-H2A inh,A1 inh,UCH37 inh,Vif TR-FRET
Cc1ccc(-c2nc3cccnc3s2)cc1NC(=O)C1c2ccccc2Oc2ccccc21,35,40*,0.73,x,x,-49,11%
Clc1ss/c(=N\c2ccccn2)c1Cl,4,2.9,x,2.4,1.3,x,6%
CN(NC(=O)c1ccccc1)C1=NS(=O)(=O)c2ccccc21,-5,1.2,0.7,0.0,0.2,6.1,24%
CCOc1ccc(NC(=O)CN(C)C(=O)c2ccc(N3CCOCC3)c([N+](=O)[O-])c2)cc1OCC,-4,0.5,x,0.9,-1.2,x,x
CCOC(=O)N1CCN(CC(=O)Nc2ccc(OC)cc2)CC1,-1,-2.6,0.72,0.3,-0.2,2.1,-1%
C1CCc2c(nnc3c2-c2nonc2CC3)C1,2,-2.8,0.69,-3.5,-0.2,0.7,u
COC(=O)c1ccc(Nc2nc(-c3ccncc3)nc3ccccc23)cc1,9,3.6,0.72,0.2,1.4,-54,-6%
O=C(Nc1ccc(Cl)c(Cl)c1)OCCNC(=O)c1cccc(Cl)c1,-5,2.8,0.75,-3.0,-0.1,4.1,5%
COc1cccc(NC(=O)CCNC(=O)Cn2ccc3ccccc3c2=O)c1,1,-2.3,0.69,0.9,1.2,-1.3,2%
COC(=O)CC1Oc2ccccc2N(Cc2ccccc2)C1=O (stereo unspecified),4,3.2,0.71,5.3,0.5,1.8,72%
C=CCOC(=O)C1=C(C)NC(C)=C(C(=O)OCC=C)C1c1cn(-c2ccccc2)nc1-c1ccco1,-17,0.3,0.72,3.7,0.1,-318,-5%
COC(=O)C1=C(C)N(Cc2ccco2)C(=O)C1,6,-3.4,0.76,2.1,1.2,6.9,u
CN(/C=C/C(=O)C(F)(F)F)Cc1ccccc1,2,-2.8,0.7,-1.1,1.2,9.4,9%
CC(CN1C(C)CCCC1C)OC(=O)c1ccccc1Br (stereo unspecified),2,0.6,0.69,0.5,0.2,2.7,3%
CC(=O)CSc1ccc(C(=O)O)cn1,-3,7.3,0.7,3.1,0.8,1.4,-19%
COCCN(C(=S)Nc1ccccc1C)C(C)c1cccs1 (stereo unspecified),4,-3.3,0.69,12,1.4,0.7,1%
O=C(Cn1c(=O)oc2ccccc21)Nc1ccc(S(=O)(=O)N2CCCCC2)cc1,21,-3.7,0.73,-5.6,0.9,3.6,16%
CC(C)c1ccc(C(C)NC(=O)C2CCCC2)cc1 (stereo unspecified),-3,-3.2,0.7,-2.3,-1.5,4.5,x
CCCCn1c(SCC(=O)c2ccc3c(c2)OCCO3)nnc1-c1ccco1,-10,-0.4,0.68,3.2,-0.2,1.8,-1%
CCCCNc1c(-c2cccc(SC3CCCCC3)c2)nc2ccc(Cl)cn12,-7,-2.4&4.9,0.81,-0.6,-0.8,1.4,x
Cc1ccc(-n2nc(C)c(/C=N/NC(=O)c3cccnc3)c2Cl)cc1,-1,-1.2,x,4.1,-0.3,x,x
CCCOc1ccc(C(=O)NCc2cccnc2)cc1,-6,-3.6,0.67,7.8,0.1,6.0,-7%
O=C(C1CCCN(S(=O)(=O)c2ccccc2[N+](=O)[O-])C1)N1CCCC1 (stereo unspecified),-9,-1.8,0.64,6.3,0.4,3.7,6%
CN(Cc1ccccc1)C(=S)NC(=O)C1CCCCC1,1,-0.4,0.69,-0.1,2.1,1.2,x
CCOc1ccc(/C=C2/SC(=S)N(CCC(=O)Nc3ccc(C(=O)O)cc3)C2=O)cc1,12,-2.4,0.73,1.5,-0.3,3.7,x

# (listing goes on)
SMILES,Beta2AR agonist,HNF4A DNA FP,E coli growth,LANA-H2A inh,A1 inh,UCH37 inh,Vif TR-FRET
Cc1cc(=S)nc(-c2ccccn2)[nH]1,-1,3.4,0.61,2.5,0.2,1.3,1%
CC(C)CC(CO)N1CCN(C(=O)c2ccccc2)CCC1=O (stereo unspecified),-7,3.9,0.69,-2.7,-0.7,0.5,x
COc1ccc(OCC(=O)NNC(=O)C(=O)Nc2cc(OC)ccc2OC)cc1,2,3.1,0.69,0.9,-0.1,-3.4,x
CCC/C(O)=C1\C(=O)CC(C)(C)CC1=Nc1ccc(OC)cc1,2,2.7,0.66,0.5,0.8,2.9,0%
O=C(O)c1cncc(C#CCC2CCCCC2)c1,5,-2.4,0.7,13,0.0,1.2,20%
Cc1ccc(SCc2ccc(C(=O)Nc3ccccc3Br)cc2)cc1,-3,-2.4,0.7,3.3,1.3,0.4,x
Cc1ccc(NC2c3ncccc3C(=O)N2Cc2ccco2)c(C)c1 (stereo unspecified),-7,-1.0,0.66,-0.2,-0.3,0.1,x
Cc1ccc(Nc2nc(-c3sc(NC(=O)c4ccco4)nc3C)cs2)cc1,9,13,0.7,1.8,-4.2,-13,u
Cc1cccc2sc(NNC(=O)c3ccc4c(c3)OCCO4)nc12,6,0.7,0.72,1.1,-0.3,4.8,-8%
O=[N+]([O-])c1ccc(Cl)c(S(=O)(=O)Nc2cccc(-c3ccc(N4CCCC4)nn3)c2)c1,-5,4.0,0.69,-6.9,0.3,3.2,-2%
CCCCOc1ccc(Cl)cc1Nc1nc(NCCO)nc(N2CCCC2)n1,19,2.4,0.67,-1.9,-0.5,2.1,x
COc1ccc(N(CC(=O)NCCSc2ccccn2)S(C)(=O)=O)cc1,-6,-0.5,0.72,0.0,1.4,0.9,8%
CCOc1ccc(NC2=C(OC)C(=O)c3ccccc3C2=O)cc1,-21,-3.0,0.57,2.7,-0.8,7.1,2%
Cc1ccccc1OCC(=O)N1CCc2ccccc2C1,18,4.7,0.68,-0.9,-0.1,2.8,-4%
C/C(=N\Nc1nc(N)cc(Cl)n1)c1cccc(N)c1,0,-0.2,x,-0.7,-0.2,x,4%
CCCCNC(=O)CSc1nccn1Cc1ccccc1,-3,3.7,0.68,10,-0.2,-1.8,2%
C[C@H](NS(=O)(=O)c1ccc2c(c1)OCCCO2)C(=O)N1CCN(Cc2ccccc2)CC1,2,-2.2,0.68,x,x,0.1,0%
CNC(=O)CSc1nnc(-c2ccco2)n1-c1ccc(C)cc1,-8,2.3,0.7,0.7,0.1,4.6,-6%
COc1ccccc1OCCn1cc(/C=N/NC(N)=S)c2ccccc21,6,0.2,x,4.3,0.4,x,x
CCc1ccc(N2C(=O)CN(Cc3ccc(OC)c(OC)c3)C2=S)cc1,5,2.5,0.7,3.3,-0.2,2.2,x
Cc1ccccc1OCC(=O)NN1C(=O)C2C3C=CC(O3)C2C1=O (stereo unspecified),5,4.8,0.63,-0.9,0.3,0.0,0%
O=C(Nc1ccc2c(c1)OCO2)C1CCCCC1,15,1.7,0.69,-2.8,-0.8,2.9,1%
CC1CCc2cc(F)ccc2N1C(=O)CCl (stereo unspecified),14,1.2,0.71,x,x,3.9,u
O=[N+]([O-])c1ccc(N2CCOCC2)cc1O,4,5.0,0.65,-0.4,-0.2,11,-2%
Cc1cc(NCc2ccco2)nc(N2CCC(C(=O)NC3CCCCC3)CC2)n1,0,-2.2,0.69,5.7,0.6,3.3,-1%

# Fetched one by one from the list above (4):
SMILES,Beta2AR agonist,HNF4A DNA FP,E coli growth,LANA-H2A inh,A1 inh,UCH37 inh,Vif TR-FRET
CC(=O)c1cccc(NC(=O)c2cc(C)no2)c1,13,17,0.65,-2.1,-0.3,4.2,21%
O=C(NNC(=O)C1COc2ccccc2O1)c1cccc([N+](=O)[O-])c1 (stereo unspecified),-7,1.7,0.67,-3.6,-0.3,-0.2,-1%
COc1ccccc1NS(=O)(=O)c1cccc(NC(=O)c2[nH]c(C)c(C(C)=O)c2C)c1,9,-2.7,0.68,-1.7,-1.2,1.7,x
COC(=O)c1ccc(Nc2nc(-c3ccncc3)nc3ccccc23)cc1,9,3.6,0.72,0.2,1.4,-54,-6%
